UUG fidelity = yeast start codon fidelity modulation; S. cerevisiae UUG-firefly luciferase reporter, luminescence/redox ratio; activity score, % at 18.7 µM; 0.13% of 350,000 active; AID 602363;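 active = replicate mean at a twofold rise or more, about +100% in these data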;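 note: firefly luciferase made from a UUG start codon reports start codon fidelity; reporter light over untreated wells divided by growth signal over untreated wells; some hits fall short of that in this replicate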
HIV Env fusion = blocks HIV Env-driven cell-cell fusion. HeLa-JRFL Env/CEM21 cell fusion, luciferase. inhibition, % at 12.3 µM. 1.1% of 360,000 active;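 active = mean replicate inhibition score of at least 50 and every replicate individually at or above 50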;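 note: 0% = plate neutral controls and 100% = maraviroc near 300 nM; one replicate is shown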
The depositor's hits bear a star; [ ] = remark or other dose. Some of the compounds tested. The share of hits here may be higher or lower than overall.

Preview, five compounds:
SMILES	UUG fidelity	HIV Env fusion
C[C@H](O)C#Cc1ccc2c(c1)O[C@H](CN(C)Cc1ccncc1)[C@@H](C)CN([C@@H](C)CO)S2(=O)=O	-3.6	-5.4[16.7 µM]
C[C@@H]1CN([C@H](C)CO)C(=O)Cc2cc(NS(=O)(=O)c3ccc(Cl)cc3)ccc2O[C@@H]1CN(C)Cc1ccc(C(F)(F)F)cc1	-7.6	6.4[16.7 µM]
COc1ccccc1-c1ccc2c(c1)O[C@H](CN(C)S(=O)(=O)c1ccc(C)cc1)[C@H](C)CN([C@@H](C)CO)S2(=O)=O	-12.9	42.6*[16.7 µM]
C/C=C/c1cnc2c(c1)C(=O)N([C@@H](C)CO)C[C@H](C)[C@H](CN(C)C(=O)C1CCCCC1)O2	5.4	11.6[16.7 µM]
CO[C@H]1CN(C)C(=O)c2ccc(NC(C)=O)cc2OC[C@H](C)N(C(=O)Cc2cccnc2)C[C@H]1C	-16.5	11.2[16.7 µM]

The whole of this part, repeating the preview:
SMILES	UUG fidelity	HIV Env fusion
C[C@H](O)C#Cc1ccc2c(c1)O[C@H](CN(C)Cc1ccncc1)[C@@H](C)CN([C@@H](C)CO)S2(=O)=O	-3.6	-5.4[16.7 µM]
C[C@@H]1CN([C@H](C)CO)C(=O)Cc2cc(NS(=O)(=O)c3ccc(Cl)cc3)ccc2O[C@@H]1CN(C)Cc1ccc(C(F)(F)F)cc1	-7.6	6.4[16.7 µM]
COc1ccccc1-c1ccc2c(c1)O[C@H](CN(C)S(=O)(=O)c1ccc(C)cc1)[C@H](C)CN([C@@H](C)CO)S2(=O)=O	-12.9	42.6*[16.7 µM]
C/C=C/c1cnc2c(c1)C(=O)N([C@@H](C)CO)C[C@H](C)[C@H](CN(C)C(=O)C1CCCCC1)O2	5.4	11.6[16.7 µM]
CO[C@H]1CN(C)C(=O)c2ccc(NC(C)=O)cc2OC[C@H](C)N(C(=O)Cc2cccnc2)C[C@H]1C	-16.5	11.2[16.7 µM]
COc1ccc(NC(=O)N(C)C[C@@H]2OCCCC[C@@H](C)Oc3ccc(NS(=O)(=O)c4c(C)noc4C)cc3C(=O)N([C@H](C)CO)C[C@@H]2C)cc1	11.9	4.5[16.7 µM]
CN1C(=O)c2cc(NC(=O)C3CCCCC3)ccc2OC[C@H]2O[C@@H](CC(=O)NCCc3ccncc3)CC[C@@H]21	2.2	-6.1[16.7 µM]
COc1ccc(NC(=O)Nc2ccc3c(c2)[C@H]2C[C@H](CC(=O)N4CCc5ccccc5C4)O[C@H](CO)[C@H]2O3)cc1	-0.9	0.2[16.7 µM]
COc1ccc(NC(=O)C[C@H]2CC[C@H]3[C@@H](COc4ccc(NC(C)=O)cc4C(=O)N3C)O2)cc1	-0.8	-9.4[16.7 µM]
CN(C)CCCNC(=O)C[C@H]1CC[C@H]2[C@H](COc3ccc(NC(=O)c4ccc5c(c4)OCO5)cc3C(=O)N2C)O1	-6.4	11.6[16.7 µM]
C[C@@H]1CCCCO[C@@H](CN(C)S(=O)(=O)c2ccc(Cl)cc2)[C@H](C)CN([C@H](C)CO)C(=O)c2cc(N(C)C)ccc2O1	43.5	12.0[16.7 µM]
C[C@@H]1CN([C@H](C)CO)C(=O)c2cccc(NC(=O)Nc3ccc(F)cc3)c2O[C@@H]1CN(C)S(=O)(=O)c1ccccc1	17.7	13.6[16.7 µM]
C[C@H]1CCCCO[C@H](CN(C)C(=O)CCCN(C)C)[C@@H](C)CN([C@@H](C)CO)C(=O)c2cc(NC(=O)Nc3cccc4ccccc34)ccc2O1	9.2	-11.6[16.7 µM]
CC(C)CC#Cc1ccc2c(c1)O[C@@H](CN(C)CC1CCOCC1)[C@H](C)CN([C@@H](C)CO)S2(=O)=O	-5.4	21.8[16.7 µM]
CN(C)CCCNC(=O)C[C@H]1CC[C@@H](NS(=O)(=O)c2ccccc2)[C@@H](CO)O1	4.3	-2.1[16.7 µM]
COc1ccc(NC(=O)N(C)C[C@@H]2OCCCC[C@H](C)Oc3ccc(NS(=O)(=O)c4ccc(Cl)cc4)cc3C(=O)N([C@@H](C)CO)C[C@@H]2C)cc1	-6.2	-8.5[16.7 µM]
C[C@H]1CN([C@@H](C)CO)C(=O)c2cc(/C=C/c3ccccc3)cnc2O[C@H]1CN(C)Cc1cncnc1	-10.6	-12.5[16.7 µM]
Cc1ccc(S(=O)(=O)N[C@H]2CC[C@H](CCn3cc(C4CCCCC4)nn3)O[C@@H]2CO)cc1	-6.1	6.8[16.7 µM]
O=C(C[C@H]1CC[C@H](NC(=O)C2CCC2)[C@H](CO)O1)NC1CCC1	-3.5	-4.8[16.7 µM]
CO[C@H]1CN(C)C(=O)c2cc(NC(C)=O)ccc2OC[C@@H](C)N(Cc2cccc(F)c2)C[C@@H]1C	22.2	7.0[16.7 µM]
C[C@@H]1CN([C@@H](C)CO)S(=O)(=O)c2ccc(C#C[C@@H](C)O)cc2O[C@H]1CN(C)C(=O)c1ccncc1	-2.1	-20.4[16.7 µM]
C[C@H](CO)N1C[C@H](C)[C@@H](CN(C)C(=O)Nc2ccccc2)Oc2ncc(Br)cc2C1=O	18.4	-6.5[16.7 µM]
O=C(Nc1ccc2c(c1)[C@H]1C[C@@H](CC(=O)N3CCc4ccccc4C3)O[C@H](CO)[C@H]1O2)Nc1ccccc1F	3.1	-0.5[16.7 µM]
CCC(=O)N(C)C[C@@H]1Oc2cc(-c3ccccc3F)ccc2S(=O)(=O)N([C@@H](C)CO)C[C@H]1C	-4.8	-10.9[16.7 µM]
COc1ccc(NC(=O)N(C)C[C@H]2Oc3c(NC(=O)C4CC4)cccc3C(=O)N([C@@H](C)CO)C[C@H]2C)cc1	-0.8	-22.7[16.7 µM]
Following part.
SMILES	UUG fidelity	HIV Env fusion
C[C@H]1CN([C@@H](C)CO)C(=O)c2cccc(NC(=O)c3ccncc3)c2O[C@H]1CN(C)Cc1ccccc1	-15.7	2.8[16.7 µM]
CN1C(=O)N[C@@H]2c3ccccc3O[C@@]1(C)[C@@H]2CO	-19.7	-15.4[16.7 µM]
CCc1cnc(N2[C@H](C#N)[C@H](c3ccccc3)[C@@H]2CO)s1	-13.1	5.3[16.7 µM]
CO[C@H]1CN(C)C(=O)c2cc(NC(=O)Nc3ccc(Cl)cc3)ccc2OC[C@H](C)N(C)C[C@H]1C	16.9	1.7[16.7 µM]
COc1ccc(CN(C)C[C@@H]2Oc3ccc(NS(=O)(=O)c4ccccc4)cc3CC(=O)N([C@H](C)CO)C[C@@H]2C)cc1	-12.5	2.0[16.7 µM]
C[C@@H]1CN([C@H](C)CO)C(=O)c2cccc(NC(=O)Nc3ccc4c(c3)OCO4)c2O[C@H]1CN(C)C(=O)Nc1ccccc1	9.9	-10.1[16.7 µM]
Cc1ccc(S(=O)(=O)N(C)C[C@H]2Oc3cc(C#CC4CCCC4)ccc3S(=O)(=O)N([C@@H](C)CO)C[C@H]2C)cc1	-5.0	2.4[16.7 µM]
C[C@@H]1CN([C@@H](C)CO)C(=O)c2cc(NC(=O)NC3CCCCC3)ccc2O[C@@H](C)CCCCO[C@H]1CN(C)C(=O)C1CCCCC1	8.7	24.0[16.7 µM]
COCc1cn(CC[C@@H]2CC[C@H](NC(=O)c3ccc(F)cc3)[C@@H](CO)O2)nn1	38.4	-7.9[16.7 µM]
CO[C@@H]1CN(C)C(=O)c2ccc(NC(=O)Nc3ccccc3F)cc2OC[C@H](C)N(C(C)=O)C[C@@H]1C	12.9	12.6[16.7 µM]
Cc1noc(C)c1S(=O)(=O)Nc1cccc2c1O[C@@H](CN(C)C(=O)Nc1ccc(C(F)(F)F)cc1)[C@@H](C)CN([C@H](C)CO)C2=O	9.3	-16.6[16.7 µM]
Cc1noc(C)c1S(=O)(=O)N(C)C[C@@H]1Oc2ccc(NC(=O)C3CCCCC3)cc2CC(=O)N([C@@H](C)CO)C[C@@H]1C	-3.7	27.7[16.7 µM]
COc1ccc(S(=O)(=O)Nc2ccc3c(c2)CC(=O)N([C@H](C)CO)C[C@@H](C)[C@@H](CN(C)S(=O)(=O)c2ccc(F)cc2)O3)cc1	6.1	11.3[16.7 µM]
COc1ccc(S(=O)(=O)N(C)C[C@@H]2OCCCC[C@@H](C)Oc3ccc(NC(=O)Cc4ccccc4)cc3C(=O)N([C@@H](C)CO)C[C@@H]2C)cc1	-4.2	-3.4[16.7 µM]
C[C@@H]1CN([C@H](C)CO)C(=O)c2cc(NS(=O)(=O)c3ccc(Cl)cc3)ccc2O[C@H]1CN(C)Cc1ccc(Cl)c(Cl)c1	4.9	-19.3[16.7 µM]
CC(C)NC(=O)N(C)C[C@H]1Oc2cc(C#Cc3cccc(F)c3)ccc2S(=O)(=O)N([C@@H](C)CO)C[C@H]1C	1.8	-28.5[16.7 µM]
C[C@H](CO)N1C[C@H](C)[C@H](CN(C)Cc2ccncc2)Oc2ccc(N(C)C)cc2CC1=O	8.3	-13.0[16.7 µM]
C/C=C/c1cnc2c(c1)C(=O)N([C@H](C)CO)C[C@@H](C)[C@H](CN(C)CC1CCOCC1)O2	-19.1	-2.2[16.7 µM]
O=C(C[C@@H]1CC[C@@H](NC(=O)Nc2cccc(F)c2)[C@@H](CO)O1)NCC1CC1	-5.8	14.6[16.7 µM]
C[C@@H]1CN([C@@H](C)CO)C(=O)c2cc(-c3cccc(F)c3)cnc2O[C@H]1CN(C)C(=O)c1ccccn1	6.0	14.4[16.7 µM]
C[C@H](CO)N1C[C@H](C)[C@H](CN(C)S(=O)(=O)c2ccc(C#N)cc2)Oc2ncc(-c3ccccc3)cc2C1=O	18.6	6.1[16.7 µM]
CCNC(=O)C[C@@H]1CC[C@@H]2[C@@H](COc3ccc(NC(=O)Nc4c(C)noc4C)cc3C(=O)N2C)O1	-26.0	4.4[16.7 µM]
COc1ccc(CN(C)C[C@H]2OCCCC[C@@H](C)Oc3ccc(NS(=O)(=O)c4ccc(F)cc4)cc3C(=O)N([C@H](C)CO)C[C@@H]2C)cc1	-5.7	-6.2[16.7 µM]
COCCNC(=O)C[C@H]1C[C@@H]2c3cc(NC(=O)NC4CCCCC4)ccc3O[C@@H]2[C@@H](CO)O1	6.6	-7.7[16.7 µM]
CCCN1C[C@@H](C)[C@@H](OC)CN(C)C(=O)c2ccc(NS(=O)(=O)c3ccccc3)cc2OC[C@H]1C	-8.7	-18.3[16.7 µM]
Further compounds follow:
SMILES	UUG fidelity	HIV Env fusion
C[C@H](CO)N1C[C@H](C)[C@H](CN(C)S(=O)(=O)c2ccccc2)Oc2ncc(C#Cc3ccc(F)cc3)cc2C1=O	-7.7	-11.7[16.7 µM]
C[C@H]1CN([C@@H](C)CO)C(=O)c2cc(NS(=O)(=O)c3ccc(Cl)cc3)ccc2O[C@@H]1CN(C)C(=O)Nc1ccccc1	2.8	-10.1[16.7 µM]
Cc1noc(C)c1S(=O)(=O)Nc1ccc2c(c1)C(=O)N([C@H](C)CO)C[C@@H](C)[C@@H](CN(C)C)OCCCC[C@@H](C)O2	-6.7	2.0[16.7 µM]
O=C(N[C@H]1CC[C@H](CCNC(=O)C2CCCCC2)O[C@H]1CO)c1ccccn1	15.7	11.2[16.7 µM]
COc1ccc(NC(=O)N(C)C[C@@H]2Oc3c(NC(=O)Nc4ccccc4)cccc3C(=O)N([C@@H](C)CO)C[C@@H]2C)cc1	8.3	18.2[16.7 µM]
COc1ccc(NC(=O)Nc2cccc3c2O[C@H](CN(C)CC2CC2)[C@@H](C)CN([C@@H](C)CO)C3=O)cc1	-4.4	-10.9[16.7 µM]
C[C@@H]1CN([C@@H](C)CO)C(=O)c2cc(C3=CCCC3)cnc2O[C@@H]1CN(C)C(=O)Cc1ccncc1	-6.3	5.8[16.7 µM]
C[C@H]1CN([C@@H](C)CO)C(=O)c2cccc(NC(=O)Nc3ccc4c(c3)OCO4)c2O[C@@H]1CN(C)C(=O)Nc1ccc(C(F)(F)F)cc1	21.7	2.2[16.7 µM]
CCCN(C)C[C@H]1Oc2ncc(C#CCC(C)C)cc2C(=O)N([C@@H](C)CO)C[C@@H]1C	-4.6	-4.4[16.7 µM]
Cc1ccccc1S(=O)(=O)N[C@@H]1CC[C@@H](CCNS(=O)(=O)c2cccc(F)c2)O[C@@H]1CO	21.8	-1.6[16.7 µM]
Cc1noc(C)c1NC(=O)N(C)C[C@@H]1Oc2cc(C#CCC(C)C)ccc2S(=O)(=O)N([C@H](C)CO)C[C@@H]1C	0.3	-12.9[16.7 µM]
CNC(=O)C[C@H]1CC[C@H]2[C@H](COc3ccc(NC(=O)c4cccc(OC)c4)cc3C(=O)N2C)O1	-4.6	-13.0[16.7 µM]
C[C@@H]1CCCCO[C@H](CN(C)S(=O)(=O)c2ccc(Cl)cc2)[C@H](C)CN([C@H](C)CO)C(=O)c2cc(NS(=O)(=O)c3ccc(Cl)cc3)ccc2O1	-6.0	-1.6[16.7 µM]
CNC[C@H]1Oc2cc(C#CCC(C)C)ccc2S(=O)(=O)N([C@H](C)CO)C[C@@H]1C	-4.3	10.3[16.7 µM]
CC(C)NC(=O)Nc1ccc2c(c1)CC(=O)N([C@H](C)CO)C[C@@H](C)[C@@H](CN(C)Cc1ccccc1)O2	3.0	3.2[16.7 µM]
C[C@H](CO)N1C[C@H](C)[C@H](CN(C)CC2CC2)Oc2cc(-c3ccccc3F)ccc2S1(=O)=O	-0.3	-8.2[16.7 µM]
C[C@@H]1CN([C@H](C)CO)S(=O)(=O)c2ccc(C#Cc3ccncc3)cc2O[C@H]1CN(C)C(=O)C1CC1	-2.7	3.4[16.7 µM]

Assay outcomes as filed in PubChem.
